High-throughput results deposited in PubChem by ICCB-Longwood Screening Facility, Harvard Medical School.
GIV Gai3 FP – inhibitors of GIV GBA-motif binding to rat Galpha-i3. AID 1224905. 210,000 compounds, 0.42% hits. Galpha-i3/FITC-GIV peptide fluorescence polarization, 90 min; active compounds read low; scaled: aluminum fluoride 0%, vehicle 100%. percent of control (FP), % (test concentration not listed);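 active = replicate mean at 85% of control or lower, very high polarization wells dropped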;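 also: lower values mean more displacement of the GIV peptide from Galpha-i3; wells of about 15 µL received 100 nL stock; the first replicate is given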
Target sequence (P08753 whole entry, looked up): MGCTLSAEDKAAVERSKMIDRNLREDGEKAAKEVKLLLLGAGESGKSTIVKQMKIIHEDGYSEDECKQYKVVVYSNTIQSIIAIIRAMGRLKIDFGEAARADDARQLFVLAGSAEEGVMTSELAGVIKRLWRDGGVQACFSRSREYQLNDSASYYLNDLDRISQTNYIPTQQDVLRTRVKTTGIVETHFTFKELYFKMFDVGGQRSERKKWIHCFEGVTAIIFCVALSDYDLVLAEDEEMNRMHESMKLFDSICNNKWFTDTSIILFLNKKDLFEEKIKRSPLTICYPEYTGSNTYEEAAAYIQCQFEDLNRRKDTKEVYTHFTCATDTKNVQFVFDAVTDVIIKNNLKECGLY
HCMV NEC inh – cytomegalovirus nuclear egress complex inhibition. HTRF UL50-UL53 interaction, normalized percent inhibition. inhibition, % (no concentration beside the values). 190,000 compounds, 0.15% hits. AID 1918969;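 active = both replicates at 50% or more, plus weaker picks with an unusually low signal ratio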;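 also: stock transfer was 100 nL into about 20 µL; 0% = negative control wells and 100% = wells with untagged competitor protein; inactives centre near -12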
Sa growth 42C – S. aureus growth inhibition; S. aureus RN4220 growth, OD600, 20 h, 42 °C; active compounds read low; relative growth, % (concentration not given with the values); 170,000 compounds, 0.53% hits; AID 720641;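 active = growth at 42 °C up to 50% and 20 or more points under that at 30 °C, or under 10% at both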;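 also: 300 nL library stock went into each well; scaled to the means of positive and negative controls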
Sa growth 42C second temp – second read-out of Sa growth 42C, no call of its own (marks repeat the call); relative growth, %; measured here: growth at 30 °C;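 optical density after 20 h as mean of two plates; 100% = untreated growth and lower means inhibition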
Active calls of the source: *; . = no result given; & = joins results of further samples.

nr	smiles	HCMV NEC inh	Sa growth 42C	GIV Gai3 FP	Sa growth 42C second temp
1	Cc1cc2c3c(c1)C1(C(=O)N3C(C)(C)CC2C)C(C#N)=C(N)Oc2n[nH]c(C)c21 (stereo not drawn)	-7	80	106	95
2	COc1cc(N=Cc2nc(-c3ccccc3Br)oc2O)c(C(=O)O)cc1OC	-19	.	102	.
3	CC1(C)CC(=O)C=C(NCCCc2[nH]nc(N)c2C#N)C1	-4	96	.	92
4	CC(C)n1c(O)c(N=NC(=O)c2ccc(O)cc2)c2ccccc21	-36	100	.	92
5	COc1ccc(NC(=O)CSc2nc(-c3ccc(F)cc3)[nH]c2-c2ccc(C)cc2)cc1OC	-5	111	101	89
6	CCC(C)NC(=O)CSc1nc2n[nH]c(C)c2c(=N)n1-c1ccccc1Cl (stereo not drawn)	-33	88	100	72
7	O=C(Nc1ccc2nc(SCC(=O)N3CCOCC3)sc2c1)c1ccc(F)cc1	-14&-6	89	102&95	48
8	CCOC(=O)C1CCN(C(=O)c2cc3sc(C)cc3n2C)CC1	-22	101	105	89
9	CCCc1cc(C(=O)Nc2nnc(CC)s2)sc1C	-16	86	.	82
10	O=c1c(-c2ccccc2)c1-c1ccccc1	-61	83	.	73
11	O=C(OCC(=O)N1CCCCC1)c1cc(=O)[nH]c(=O)[nH]1	18	98	.	101
12	CC(=O)Nc1ccc(NC(=O)c2cccc(C)c2)cc1	-43	81	102	90
13	CCC(O)c1nc2ccccc2n1Cc1cccc(Cl)c1 (stereo not drawn)	-20	97	106	88
14	CCSc1nn2c(=O)c(C)nnc2s1	14	.	107	.
15	O=C(c1ccc2c(c1)N(Cc1ccc(F)cc1)C(=O)c1ccccc1S2(=O)=O)N1CCC(Cc2ccccc2)CC1	5	100	102	90
16	CCOC(=O)c1cc(-c2ccccc2)[nH]c(=O)c1C#N	-10	102	99	95
17	O=C(CC1CCCC1)NCCS(=O)(=O)N1CCN(c2ccccc2)CC1	-24	99	102	94
18	Cc1nc(C(F)(F)F)c(-c2ncn(-c3ccccc3)n2)s1	-13	.	104	.
19	CNC(=S)N1N=C2c3ccccc3CCC2C1c1ccc(OC)cc1 (stereo not drawn)	-51	102	106	74
20	O=C(O)c1ccc(NNC(=S)NCC2CCCO2)cc1 (stereo not drawn)	8	101	.	98
21	CS(=O)(=O)N1CCCCCC1	-12	92	97	82
22	CCCCn1c(=O)c2sccc2n2c(SCC(=O)N3CCCC(C)C3)nnc12 (stereo not drawn)	13	.	102	.
23	Cc1nn(-c2ccccc2)c2c1N(CCCC(=O)NC1CCCCC1)C(=O)CS2	-12	97	104	87
24	O=C1CCCC(O)=C1C=Nc1ccc(N=CC2=C(O)CCCC2=O)cc1	-13	101	101	97
25	O=C(CCc1cn(-c2ccccc2)nc1-c1ccc2c(c1)OCO2)N1CCCC1	-14	.	101	.
26	COc1ccc(Cc2nnc(SCC(=O)NC(C)C)n2-c2ccc(F)cc2)cc1OC	-30	97	99	87
27	Cc1ccc(Nc2nc(SCc3ccccc3)nnc2C)cc1	.	45	104	26
28	COc1ccc(C(=O)N2CCN(Cc3ccc(OC)c(OC)c3OC)CC2)cc1	7	101	100	86
29	COc1cc2c(cc1OC)C(COc1ccc3c(C)cc(=O)oc3c1)N(C(=O)c1ccccc1C)CC2 (stereo not drawn)	-2	99	112	93
30	CNc1ccnc(C(=O)O)c1	-29	97	98	83
31	NS(=O)(=O)c1ccc(N=NSCCO)cc1	-124	71	101	77
32	CCOC(=O)N1CCC(NC(=O)c2ccc3c(c2)N(Cc2ccccc2)C(=O)c2ccccc2S3(=O)=O)CC1	-29	105	103	90
33	CCC(C)NC(=O)c1cn(CC)c2ccc(S(=O)(=O)N3CCc4ccccc4C3)cc2c1=O (stereo not drawn)	-34	100	100	75
34	Cc1ccc(S(=O)(=O)NCC(=O)NC2CCCCCC2)cc1	-2	106	107	98
35	N#Cc1c(N)nc2c(c1-c1ccc(Br)s1)CCCC2	.	92	105	91
36	COCCn1c(C)cc(C(=O)COC(=O)c2cc(-c3ccco3)nc3ccccc23)c1C	-29	99	.	92

In another format: 3 of the compounds above.
Values run as follows: HCMV NEC inh | Sa growth 42C | GIV Gai3 FP | Sa growth 42C second temp
26) COc1ccc(Cc2nnc(SCC(=O)NC(C)C)n2-c2ccc(F)cc2)cc1OC
  -30 | 97 | 99 | 87
32) CCOC(=O)N1CCC(NC(=O)c2ccc3c(c2)N(Cc2ccccc2)C(=O)c2ccccc2S3(=O)=O)CC1
  -29 | 105 | 103 | 90
30) CNc1ccnc(C(=O)O)c1
  -29 | 97 | 98 | 83

More records.
nr	smiles	HCMV NEC inh	Sa growth 42C	GIV Gai3 FP	Sa growth 42C second temp
37	Cc1ccc(-c2noc(CNC(=O)c3ccccc3)n2)cc1	-25	105	106	86
38	COC(=O)c1cccc(-c2ccc(C=C3C(=O)OC(c4ccccc4)OC3=O)o2)c1 (stereo not drawn)	.	105	98	91
39	CN(C)C(CNC(=O)c1ccccn1)c1ccco1 (stereo not drawn)	-15	78	.	94
40	Cn1c2c(c(=O)[nH]c1=O)C1(O)C(=O)c3ccccc3C1(O)N2 (stereo not drawn)	-15	103	104	111
41	CCOC(=O)c1c(-c2ccccc2)c2oc3ccccc3c2[nH]c1=O	.	84	115	83
42	CCNC(=O)CSc1nnc(-c2cccc(S(=O)(=O)N(CC)CC)c2)n1-c1ccccc1	-29	89	.	90
43	Cn1c(=O)oc2cc(NC(=O)c3cccc(F)c3)ccc21	-14	.	103	.
44	CC1=CC(C)(C)Nc2ccc(OC(=O)Cc3ccccc3)cc21	-24	95	.	70
45	CCOc1ccccc1NC(=O)CSc1nc2c([nH]c3ccccc32)c(=O)n1-c1ccccc1	.	113	105	86
46	Cc1cc(C(C)(C)C)oc1C(=O)O	-14	102	97	113
47	O=C(COC(=O)c1cccs1)NCc1ccccc1	-13	115	.	90
48	O=C(NCCCn1c(C(F)(F)F)nc2cccnc21)Nc1ccc2c(c1)OCO2	-4	.	103	.
49	Cc1cccc(NC(=O)CSc2nc3c(c(=O)[nH]2)CN(Cc2ccccc2)CC3)c1C	-15	.	98	.
50	O=C1OCC(CO)(CO)N=C1NNc1ccccc1	-14	79	.	95
51	CC(=O)NCCc1ccc(S(=O)(=O)N(C)C)cc1	.	86	99	98
52	CSc1ccc(C=C2C(=O)OC(C)(C)OC2=O)s1	5	93	93	83
53	O=C1C(=O)N(C2CCN(C(=O)c3ccccc3Br)CC2)CCN1Cc1ccccc1	-8	.	102	.
54	O=C(NCc1cccnc1)c1cccc2c1OCCCO2	1	98	96	107
55	CCCN1CCC(=NNc2c(Cl)cc(Cl)cc2Cl)CC1	5	107	.	99
56	Cc1ccc(Cl)cc1NC(=S)N(C(C)C)C1CCN(C(C)C)CC1	.	95	105	78
57	CC(=O)N1CCN(C(=O)/C=C/c2ccc(Br)cc2)CC1	-79	83	.	91
58	Cn1c(=O)oc2cc(S(=O)(=O)N3CCCC(C(=O)N4CCN(c5cccc(Cl)c5)CC4)C3)ccc21 (stereo not drawn)	-28	116	104	58
59	CC1CNc2ccccc2N(Cc2ccccc2F)C1=O (stereo not drawn)	-12	.	100	.
60	NC(=O)CN(c1ccccc1)S(=O)(=O)c1ccc(F)cc1	1	117	103	110
61	COc1ccc(C)cc1NC(=O)c1sc2nc(C)nc(N3CCN(c4ccccn4)CC3)c2c1C	-7	.	106	.
62	CCCNC(=O)C1CCC(Cn2c(=O)c3sccc3n(Cc3ccccc3C)c2=O)CC1 (stereo not drawn)	.	97	93	88
63	NC(=O)c1cc(S(=O)(=O)N(Cc2ccco2)C2CCCCC2)cs1	-36	94	102	80
64	CN(C)/C=C1\C(=O)N(c2ccc([N+](=O)[O-])cc2)N=C1c1ccccc1	-66	.	102	.
65	N#C/C(=C\NCc1cccnc1)S(=O)(=O)Cc1ccc(Cl)cc1	3	111	102	94
66	COc1ccccc1C(=O)Nc1ccc2c(c1)NC(=O)CO2	-29	.	104	.
67	CCOC(=O)c1ccc(N=Cc2c(O)[nH]c(=O)[nH]c2=O)cc1	.	101	104	87
68	Cc1cc(C)c2c(c1)NC(c1ccc(Cl)cc1Cl)C1CC=CC21 (stereo not drawn)	-15	.	105	.
69	CC(=O)Nc1ccc(NC(=O)C(C)OC(=O)C23CC4CC(CC(C4)C2)C3)cc1 (stereo not drawn)	-42	106	.	86
70	O=C(Nc1ccc2c(c1)OCO2)N1CCC(c2nc(-c3ccccc3)no2)CC1	-35	.	101	.
71	CN(C)S(=O)(=O)c1ccc2nnn(OCCOc3cccc(Br)c3)c2c1	8	101	.	94
72	CC(=O)c1ccc(NC(=O)/C=C/c2ccc(C)o2)cc1	-36	77	109	86

Reformatted field by field: two of the compounds above
(11) O=C(OCC(=O)N1CCCCC1)c1cc(=O)[nH]c(=O)[nH]1
  HCMV NEC inh: 18	Sa growth 42C: 98	GIV Gai3 FP: .	Sa growth 42C second temp: 101

(12) CC(=O)Nc1ccc(NC(=O)c2cccc(C)c2)cc1
  HCMV NEC inh: -43	Sa growth 42C: 81	GIV Gai3 FP: 102	Sa growth 42C second temp: 90

Continued:
nr	smiles	HCMV NEC inh	Sa growth 42C	GIV Gai3 FP	Sa growth 42C second temp
73	Cc1nn(C)c(C)c1-n1nncc1C	-8	96	102	92
74	COc1ccc(-c2oc3ncn4nc(COc5ccc(C)cc5)nc4c3c2-c2ccc(OC)cc2)cc1	-13	112	108	95
75	O=C(c1ccco1)N1CCN(C(=O)C(Cc2ccccc2)NS(=O)(=O)c2cccc3nsnc23)CC1 (stereo not drawn)	-56	122	96	81
76	CCN(c1ccc(C(=O)CSc2nnc(-c3cccs3)n2C2CC2)cc1)S(C)(=O)=O	7	110	.	103
77	CCOc1cc(-c2ccc(OC(=O)c3ccc(OC)cc3)c(OC)c2)cc(=O)c2c(C)oc(C)c12	-10	76	114	86
78	CC(C)CN(CC(C)C)CN1CC(COc2cccc3ccccc23)OC1=O (stereo not drawn)	-45	96	101	85
79	Cc1ccc(-c2nc(N)sc2CC(=O)OCC(=O)N(C)C2CCS(=O)(=O)C2)cc1 (stereo not drawn)	-7	79	.	91
80	CCN(C(=O)CN1C(=O)COc2ccc(S(=O)(=O)N3CCOCC3)cc21)c1ccc(OC)cc1	.	147	109	82
81	CN1CCN(/C=C/C(=O)C(F)(F)F)CC1	-20	75	.	85
82	CN1C(=O)/C(=C\c2ccc(C(=O)O)cc2)c2cc(Br)ccc21	-23	120	.	83
83	CC(C)COC(=O)Nc1cccc2ccccc12	-3	108	104	102
84	O=c1cc(CO)[nH]cc1OCc1ccccc1	-13	92	99	87
85	CCCN1C(=O)C(O)(CC(=O)c2ccc(CC)cc2)c2cc(Br)ccc21 (stereo not drawn)	.	72	98	84
86	O=C(O)c1ccc(/C=c2/sc3nc4ccccc4n3c2=O)cc1	-14	109	102	91
87	CCCNC(=O)c1cc(C)no1	4	105	97	92
88	CC(=O)Nc1ccc(S(=O)(=O)N2CCC(c3ccncc3)CC2)cc1	.	108	108&98	89
89	Fc1ccc(Nc2nc(-c3ccncc3)nc3ccccc23)cc1F	-21	.	102	.
90	CC1CC(C(F)F)n2nc(C(=O)Nc3sc4c(c3C#N)CCC(C(C)(C)C)C4)nc2N1 (stereo not drawn)	-28	99	102	92
91	Cc1ccc(Cl)cc1N1CCN(CCCNc2ncnc3c2nc2n3CCCCC2)CC1	-8	99	100	81
92	CCc1cccc(NC(=O)Cn2c(-c3ccc(F)cc3)cc(C(C)=O)c2C)c1	.	135	99	84
93	O=C(NCc1cccs1)c1ccc(CSc2nc3ccncc3n2Cc2ccccc2)cc1	0	83	109	95
94	N#CCC(=O)NC(=O)c1cc2ccccc2oc1=O	-28	101	96	72
95	Cc1ccc(Cn2c(=O)c3ccccc3n3c(SCC(=O)N4CCCC4)nnc23)cc1	-9	109	.	97
96	Cc1cc(N2CCC(C)CC2)nc2ccc(NC(=O)C3CC3)cc12	19	.	104	.
97	CC(C)(C)C(=O)/C=C1\SCC(=O)N1CC(=O)N1CCN(c2ccccc2)CC1	-20	90	.	92
98	Cc1ccc(C)c(Cn2c3ccccc3c3cnn(CC(=O)NCCC4=CCCCC4)c(=O)c32)c1	-6	99	106	96
99	Cc1ccc2scc(N3CCCCC3C)c(=O)c2c1 (stereo not drawn)	.	129	101	65
100	CNc1nc(Nc2ccc(C(C)=O)cc2)nc(OC(C(F)(F)F)C(F)(F)F)n1	4	.	110	.
101	O=C(Nc1c2c(nn1-c1ccc(Cl)cc1)CS(=O)(=O)C2)c1ccc(Br)cc1	.	93	104	95
102	COc1ccc(CCNC(=O)CCn2c(=O)c3ccccc3n(Cc3ccccc3C)c2=O)cc1OC	-24	96	106	95
103	CC1(C)CC2CC(C)(CN2CC(O)COc2ccc(F)cc2Cl)C1 (stereo not drawn)	13	98	.	96
104	O=C(COc1ccc(Cl)cc1Cl)OCCN1CCOCC1	-17	95	.	79
105	CS(=O)(=O)Nc1ccc(Cl)cc1C(=O)c1ccccc1	.	91	96	72
106	COc1cc(C(=O)Nn2c(O)c(C3=c4ccccc4=NC3=O)sc2=S)ccc1O	-3	.	108	.
107	O=C1C=CC(=NS(=O)(=O)c2ccc(C(=O)O)cc2)C=C1	-34	64	97	68
108	CCC(C)C(=O)NCc1ccc(C)cc1 (stereo not drawn)	-8	84	100	92
109	Cc1csc2nc(CSc3nnc(-c4ccccc4F)o3)cc(=O)n12	2	.	97	.

Not a hit list. Share with any hit: about 0.8%.
